Source: PubChem BioAssay (National Center for Advancing Translational Sciences (NCATS))
N370S GC mod – N370S glucocerebrosidase modulation, Gaucher chaperone candidate. P04062. N370S GC spleen homogenate, 4MU-glucoside fluorescence. Potency, µM (top dose mostly 59.4 µM), inactives show at the top dose activity change, negative = inhibition, usual class: inhibitors. 330,000 compounds, 0.092% hits. AID 2101; active = well fitted inhibition curve with a large enough effect; inconclusive = small, poorly fitted or top-dose-only effect, or effect the other way, or another doubt; inactive = no such curve, though single readings can be large or run the other way;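 also: 0% = full enzyme activity and -100% = no enzyme basal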
Starred values were filed as active, the others as inactive; ? = inconclusive; & = joins results of further samples; [ ] = remark or other dose. Potency is read from the fitted curve at half-maximal effect. The list is partial; most or all hits stand in other tables.

SMILES	N370S GC mod
CCC(=O)N1CCc2cc(S(=O)(=O)NCCN3CCCCC3CC)ccc21 (stereo not given)	5%
Cc1ccc(-c2ccnc(=S)[nH]2)cc1	6%
O=C(COc1ccccc1)N(Cc1cccc(F)c1)C1CCS(=O)(=O)C1 (stereo not given)	0%
C=CCNC(=O)c1onc(CSc2cc(C)ccc2C)c1C(=O)O	16%
CC(C)(C)NC(=O)C(Cc1ccccc1)NS(=O)(=O)c1ccc2c(c1)CCC(=O)N2 (stereo not given)	-21%
Cc1nc2ccccc2c(=O)n1CCCN1CCOCC1	-3%
COc1ccc(NC(=S)NN2C(C)CCCC2C)cc1 (stereo not given)	0%
CN1CCN(C(=O)c2cc3c(C(F)(F)F)nn(C)c3s2)CC1	4%
COc1ccc(CCNC(=O)C2CCN(S(=O)(=O)c3ccc4c(c3)oc(=O)n4C)CC2)cc1OC	2%
OC(CNCC1CCCO1)COc1ccc(OCC(O)CNCC2CCCO2)cc1 (stereo not given)	5%
O=C(CNC(=O)c1ccc(Cl)cc1Cl)OCC(=O)N1CCCC1=O	2%
COc1ccc(NC(=O)CSc2nnc(CCC(=O)Nc3ccc(C)c(Cl)c3)n2C)cc1	13%
N/C(Cc1nc(-c2ccc(Br)cc2)cs1)=N\O	-7%
CCOc1ccc2nc(N/C(N)=N/C(=S)Nc3ccc(OC)cc3)nc(C)c2c1	-8%
COc1ccc(CCN(Cc2ccccn2)C(=S)Nc2ccccc2F)cc1OC	-10%
O=C(c1ccc(-n2cncn2)c([N+](=O)[O-])c1)N1CCN(c2cccc(Cl)c2)CC1	0%
O=C(NCC(c1cccs1)N1CCOCC1)c1ccc(Cl)s1 (stereo not given)	-4%
O=C(COc1ccccc1)NCc1cccs1	-2%
CC(=O)Oc1ccc(C(=O)Nc2cccc(-c3nnc(-c4ccco4)o3)c2)cc1	-20%
CCSCc1nnc(SCC(=O)Nc2ccc(OC)cc2)n1C	18%
Cc1ccc(S(=O)(=O)NC(CC(C)C)C(=O)NCC(C)(C)N2CCOCC2)cc1 (stereo not given)	-8%
Nc1ccc(C(=O)NNC(=O)C2COc3ccccc3O2)cc1[N+](=O)[O-] (stereo not given)	1%
CCN(CC)c1ccc(S(=O)(=O)N2CCOCC2)cc1NC(=O)COC(=O)COc1ccccc1C	-21%
COc1ccc(OCc2cc(C(=O)N3CCSCC3)no2)c(Cl)c1	6%
O=C(CNC(=O)c1ccco1)OCc1ccc(C(=O)c2ccccc2)cc1	4%
Cc1c(C(=O)N2CCCC2)oc2c1-c1nn(CC(=O)NCCCOC(C)C)cc1CC2	-14%
CC(Oc1ccc(C(=O)c2ccccc2)cc1)C(=O)N1CCOCC1 (stereo not given)	-12%
O=C(O)COc1ccccc1/C=N/NC(=O)CSc1nc2ccccc2n1Cc1ccccc1Cl	15%
O=C(c1ccccc1)N1CCN(C(=O)c2cc3nc(-c4ccccc4)cc(C(F)(F)F)n3n2)CC1	6%
O=C(COC(=O)Cc1ccc(Br)cc1)NC1CCCCCC1	0%
Cc1cc(=O)oc2cc(NC(=O)C3COc4ccccc4O3)ccc12 (stereo not given)	-1%
Cc1cnc(C(=O)Nc2ccc(C)c(S(=O)(=O)N3CCCCCC3)c2)cn1	4%
Cc1cc(NC(=O)CSc2nc3sc4c(c3c(=O)n2C)CCCC4)no1	-7%[2.35 µM]
O=C(NCC1CCCO1)c1cccc(-n2cnnn2)c1 (stereo not given)	6%
COc1cc2c(cc1OC)CN(C(=O)c1ccc(Br)o1)CC2	-5%
COC(=O)c1[nH]c2ccc(C)cc2c1NC(=O)CN1CCCC(C)(C)C1	-3%
Cc1c(C(=O)O)oc2ccc(S(=O)(=O)NCc3ccc(F)cc3)cc12	5%
CCOC(=O)C1=C(C)N(c2ccccc2)C(=O)NC1c1cccc([N+](=O)[O-])c1 (stereo not given)	-8%
COc1ccc(-n2c(C)nnc2SCC(=O)NC2CC2)cc1	-5%
CN(NS(=O)(=O)c1cccs1)c1ncc(C(F)(F)F)cc1Cl	2%
O=C(/C=C\c1ccc2c(c1)OCO2)NC1(C(=O)Nc2ccc3c(c2)OCO3)CCCCC1	5%
NC(=O)c1ccccc1N=Cc1ccccn1	0%
Cc1nnc(NC(=O)c2c(F)c(F)c(F)c(F)c2F)s1	7%
Cc1c(NC(=O)COc2ccc3ccccc3c2)c(=O)n(-c2ccccc2)n1C	7%
Cc1cccc(C(=O)N/N=C/c2coc3ccccc3c2=O)c1	-3%

Molecules shown so far that have a COOH group, in the order listed:
SMILES	N370S GC mod
C=CCNC(=O)c1onc(CSc2cc(C)ccc2C)c1C(=O)O	16%
O=C(O)COc1ccccc1/C=N/NC(=O)CSc1nc2ccccc2n1Cc1ccccc1Cl	15%
Cc1c(C(=O)O)oc2ccc(S(=O)(=O)NCc3ccc(F)cc3)cc12	5%

The list continues:
SMILES	N370S GC mod
CN(C)S(=O)(=O)c1cccc(NC(=O)COC(=O)CCC(=O)c2ccc(F)cc2)c1	7%
Fc1ccc(NCc2ccccc2F)cc1Cl	4%
Cn1c(=O)[nH]c(=O)c2c1nc(NCc1ccco1)n2CCCc1ccccc1	11%
Cc1c(C(=O)N2CCN(c3ccccc3)CC2)oc2c1C(=O)CC(C)(C)C2	0%
CCN1C(=O)[C@@H]2[C@@H](c3ccc(-c4ccc(Cl)c(Cl)c4)c(OC)c3)N3CCCC[C@@]3(C(=O)OC)[C@@H]2C1=O	0%
COc1cc(/C=C\C(=O)O)cc(S(=O)(=O)N2CCCCCC2)c1OC	0%
CC1(c2ccco2)NC(=O)NC1=O (stereo not given)	-5%
CC(=O)Nc1ccc(NC(=O)CN(C)S(=O)(=O)c2ccc3nc(C)sc3c2)cc1	0%
Cc1ccc(N)c([N+](=O)[O-])c1	22%
COC(=O)c1ccc(NC(=O)Nc2ccc(F)c(Cl)c2)cc1	-12%
COC(=O)c1cc2ccsc2n1CC(=O)Nc1ccc(N(C)C)cc1	-2%
CCN1CCN(C(=O)NC(C(=O)NC2C(=O)N3C(C(=O)O)=C(CSc4nnnn4C)CSC23)c2ccc(O)cc2)C(=O)C1=O (stereo not given)	-3%&9%
O=S(=O)(/C=C/c1ccccc1)N1CCN(c2nc(-c3cccnc3)nc3ccccc23)CC1	-22%
Cn1ccc(C(=O)Nc2sc3c(c2C#N)CCC3)n1	-3%
S=c1[nH]nc(-c2n[nH]c3c2CCC3)n1/N=C/C=C/c1ccccc1	6%
O=C(NNC(=O)C1CCCCC1)c1ccc(Br)cc1	-14%
O=C(c1ccc(NC(=S)Nc2ccc(F)cc2F)cc1)N1CCOCC1	2%
COc1ccc(CCNC(=O)CS(=O)Cc2nc(-c3ccc(C)cc3)oc2C)cc1OC (stereo not given)	0%
CC(=O)Nc1ccc(NC(=O)COC(=O)[C@@H](NC(=O)c2ccc(F)cc2)C(C)C)cc1	-4%
C#CC(C)(C)NC(=O)c1ccccc1OC	-12%
COc1ccc(S(=O)(=O)N(C)CC(=O)NC2CCCC2)cc1Cl	-10%
Cc1ccc(CN(C)C(=O)c2c(C)nn(-c3ccccc3)c2C)cc1	0%
CCCCN1C(=O)C2(NNc3ccccc3O2)c2ccccc21 (stereo not given)	-5%
Cc1ccc(C)c(N(CC(=O)NCC2CCCO2)C(=O)CCC(=O)Nc2nccs2)c1 (stereo not given)	-1%
CN1CCN(c2ccnc(-c3cccc(NS(C)(=O)=O)c3)n2)CC1	2%
COc1ccccc1C(=O)COC(=O)CCCN=C1NS(=O)(=O)c2ccccc21	-8%
CCC1=NNC(=O)C(CC(=O)Nc2ccccc2)c2cc(OC)c(OC)cc21 (stereo not given)	-17%
N/C(=N\OC(=O)c1cccnc1)c1ccc(Cl)cc1Cl	-7%
CC(C)(C)c1cc(NC(=O)COC(=O)c2ccc(O)cc2O)n(-c2ccccc2)n1	10%
COc1ccc2c(c1)-c1ccccc1S(=O)(=O)N2C(C)=O	8%
COc1ccc(/C=C(\NC(=O)c2ccc(Cl)cc2)C(=O)NCC2CCCO2)cc1OC (stereo not given)	0%
CC(=O)Nc1ccc(S(=O)(=O)N2CCCCC2c2cccnc2)cc1 (stereo not given)	7%
S=C(Nc1ccc2snnc2c1)N1CCN(c2ccccn2)CC1	-1%
CCC(c1nnc(SCC(=O)Nc2ccc(NC(C)=O)cc2)n1Cc1ccccc1)N(C)C (stereo not given)	-5%
COC(=O)c1ccc(NC(=O)CSc2nnc(CNc3ccc(F)cc3)n2C)cc1	4%
COCCCNCCOCCSc1ccc(Cl)cc1	6%
CCc1ccc(OCC(=O)N(Cc2ccccc2)C2CCS(=O)(=O)C2)cc1 (stereo not given)	-3%
COc1ccc(-n2c(Cc3cccn3C)nnc2SCC(=O)Nc2ccc(Cl)cc2)cc1	-4%
Cc1ccc(N2C(=O)Cc3ccccc3C2=O)cc1	0%
O=C(c1ccco1)c1cn(CC(=O)N2CCCCCC2)c2ccccc12	17%
O=C(/C=C/c1cccc([N+](=O)[O-])c1)OC1CCCCC1=O (stereo not given)	2%
O=C(CN1C(=O)NC2(CCCC2)C1=O)N1CCN(S(=O)(=O)c2ccc(Cl)c(C(F)(F)F)c2)CC1	-24%
Cc1ccc(NC(=O)CSc2nc3ccccc3c(=O)n2CCCC(=O)NCCCN2CCOCC2)cc1C	-17%
CCc1cccc(NC(=O)C2CCCN(c3cnccn3)C2)c1 (stereo not given)	1%
CCCS(=O)(=O)N1CCCC(C(=O)NCc2cccnc2)C1 (stereo not given)	20%
CCOc1ccc(C2/C(=C(\O)c3ccc(OC)c(OC)c3)C(=O)C(=O)N2c2cc(C)on2)cc1OC (stereo not given)	-11%
CCOc1ccc(CNC(=S)N/N=C/c2ccncc2)cc1	-7%
Cc1ccc(NC(=O)C2CCCN2S(=O)(=O)c2ccc3c(c2)n(C)c(=O)c(=O)n3C)cc1 (stereo not given)	9%
CCOc1ccc(CCNC(=O)CN2CCN(Cc3ccc(F)cc3)C2=O)cc1OCC	0%
CC(C)Oc1ccc(C(=O)Nc2c3c(nn2C(C)(C)C)CS(=O)(=O)C3)cc1	-1%
COc1ccc(OCc2cc(C(=O)N3CCCC3)no2)c2ccccc12	-7%
CSCC[C@H](NC(=O)c1ccc2ccccc2c1)C(=O)N1CCC2(CC1)NCCc1[nH]cnc12	0%
Cc1cccc(Cl)c1NC(=O)N1CCCN(c2nc3ccc(Cl)cc3s2)CC1	18%
COc1ccc(CCNC(=O)c2cc([N+](=O)[O-])ccc2N2CCOCC2)cc1	3%
CCOC(=O)c1sc2nccc(N(C)C)c2c1N=CN(C)C	1%
Cc1ccc2c(c1)CC(C)N2S(=O)(=O)c1nnc(NC(=O)CC(C)C)s1 (stereo not given)	8%
Cc1cccc(C(=O)NCC(=O)NC2CCC(C)CC2)c1 (stereo not given)	-12%
CC1CC1C(=O)Nc1nc(-c2ccccn2)cs1 (stereo not given)	-7%
O=C(N/N=C/c1cccn1-c1cccc(C(=O)O)c1)Nc1ccccc1	?
O=C(CCCn1c(=S)[nH]c2ccsc2c1=O)NC1CCCCC1	-4%
Next part:
SMILES	N370S GC mod
CSc1cccc(NC(=O)CCNS(=O)(=O)c2ccc3[nH]c(=O)oc3c2)c1	-7%
CC1CC(C)(C)NC(=S)S1 (stereo not given)	2%
Cc1ccc(S(=O)(=O)ON=C2CCN(S(=O)(=O)c3ccccc3)CC2)cc1	2%
O=C(CC1SCCNC1=O)Nc1ccc(F)c(Cl)c1 (stereo not given)	5%
NC(=O)NC(=O)COC(=O)CN1C(=O)C2CCCCC2C1=O (stereo not given)	0%
CCC(CC)C(=O)OCC(=O)Nc1ccc(S(=O)(=O)N2CCOCC2)cc1OC	0%
O=C(Cn1cncn1)N/N=C/c1c2ccccc2cc2ccccc12	4%
CCn1c(=O)c2cc(C(=O)NCCN3CCOCC3)sc2c2ccccc21	3%
COc1ccc(N(CC(=O)NCc2ccc(F)cc2)C(=O)Cn2nnc(-c3ccc(C)o3)n2)cc1OC	-20%
Cc1ccc(/C=C2/SC(=S)N(CCC(=O)NCCCN3CCOCC3)C2=O)cc1	?
CC1CCN(S(=O)(=O)c2ccc(NC(=O)Cc3ccccc3)cc2)CC1	17%
CCOc1cc(/C=N/Nc2ccccc2Cl)ccc1OCC(=O)O	-13%
Cc1ccc(S(=O)(=O)N2CCC(C(=O)NNC(=O)c3cccnc3)CC2)cc1	30%
CCOC(=O)c1c(S(=O)(=O)NCCc2ccco2)c(C)n(C)c1C	5%
Nc1nonc1-n1nnc(C(=O)N/N=C/c2ccncc2)c1CSc1ccccc1	2%
COc1ccc(-c2nc(C#N)c(NCCc3ccccc3)o2)cc1OC	9%
O=C(NCC(=O)N(c1ccccc1)C(C(=O)NC1CCCC1)c1cccnc1)c1cccs1 (stereo not given)	3%
C=CCN(C(=O)CNS(=O)(=O)c1ccccc1)C(C(=O)NCCOC)c1ccncc1 (stereo not given)	-2%
COc1ccc(NC(=O)Cn2nc(C(=O)O)c3ccccc3c2=O)cc1Cl	-2%
FC(F)(F)c1cc(C(F)(F)F)c2ccc(N3CCN(c4ccc(Cl)cc4)CC3)nc2n1	2%
Cc1nc2ncnn2c(C)c1CCC(=O)NCCC1=CCCCC1	12%
COc1ccc(C2(C(=O)NCC3CCCO3)CCOCC2)cc1 (stereo not given)	8%

A second format for 7 compounds above:
SMILES,N370S GC mod
COc1ccc(S(=O)(=O)N(C)CC(=O)NC2CCCC2)cc1Cl,-10%
Cc1ccc(CN(C)C(=O)c2c(C)nn(-c3ccccc3)c2C)cc1,0%
CCCCN1C(=O)C2(NNc3ccccc3O2)c2ccccc21 (stereo not given),-5%
Cc1ccc(C)c(N(CC(=O)NCC2CCCO2)C(=O)CCC(=O)Nc2nccs2)c1 (stereo not given),-1%
CN1CCN(c2ccnc(-c3cccc(NS(C)(=O)=O)c3)n2)CC1,2%
COc1ccccc1C(=O)COC(=O)CCCN=C1NS(=O)(=O)c2ccccc21,-8%
CCC1=NNC(=O)C(CC(=O)Nc2ccccc2)c2cc(OC)c(OC)cc21 (stereo not given),-17%
